Compound activity: PubChem, several laboratories
AF4-AF9 inh – inhibitors of human MLL-AF4/AF9 interaction; AlphaScreen, biotin-AF4 peptide binding to FLAG-AF9; inhibition, % at 10 µM; actives 0.47% (n = 350,000);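 active = every replicate reaching a set inhibition limit, whatever the replicate mean, cut at about 25% in these data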;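 also: 0% = plate neutral control median and 100% = total signal loss; the record names both 10 and 1 µM as test concentration; the first replicate is given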
Target sequence (P42568 whole entry, looked up): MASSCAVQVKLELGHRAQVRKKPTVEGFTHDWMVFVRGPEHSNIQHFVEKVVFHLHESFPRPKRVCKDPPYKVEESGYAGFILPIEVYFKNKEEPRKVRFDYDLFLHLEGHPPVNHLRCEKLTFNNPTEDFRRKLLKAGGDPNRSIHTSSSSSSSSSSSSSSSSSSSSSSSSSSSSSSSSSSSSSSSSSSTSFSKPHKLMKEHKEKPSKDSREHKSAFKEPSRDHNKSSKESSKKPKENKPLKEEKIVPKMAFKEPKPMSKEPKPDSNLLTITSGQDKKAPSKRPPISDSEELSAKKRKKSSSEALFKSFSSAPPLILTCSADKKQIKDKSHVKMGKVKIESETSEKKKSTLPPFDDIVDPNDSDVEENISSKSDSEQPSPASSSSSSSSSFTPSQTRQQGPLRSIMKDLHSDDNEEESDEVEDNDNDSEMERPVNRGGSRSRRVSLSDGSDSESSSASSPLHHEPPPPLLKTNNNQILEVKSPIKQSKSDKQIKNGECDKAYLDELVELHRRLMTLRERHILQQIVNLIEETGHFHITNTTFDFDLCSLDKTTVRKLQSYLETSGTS
Vif A3G – inhibitors of Vif binding to APOBEC3G peptide, primary screen, biochemical, TR-FRET, GST-Vif 1-94, biotin-A3G peptide, dose response retest (AID 1117319); TR-FRET GST-Vif / biotin-A3G peptide binding; higher % means a stronger effect; test concentration not given here; strong numbers were not always called active; inhibition, %, or IC50 in µM where a hit was titrated; actives 0.57% (n = 260,000);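 active = above the screen mean plus three standard deviations and confirmed in dose response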;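 also: Vif residues 1-94 fused to GST binding biotinylated APOBEC3G peptide 110-148; 0% = full assay without inhibitor and 100% = GST in place of GST-Vif; retest series ran down from 100 µM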
Ecoli rRNA inh – inhibitors of bacterial rRNA selective over humanized ribosomes. GFP signal change (wild-type ribosome), % (no concentration beside the values). actives 1.6% (n = 350,000). AID 720706. E. coli WT GFP vs humanized-ribosome RFP mutants, fluorescence, 24 h; active compounds read low; DMSO median 0, no signal -100;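 active = significant combined selectivity score with lowered wild-type GFP, culture density cut under 30%, mutant RFP and density less affected; inactive = any of these conditions unmet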; also: one replicate is shown; some compounds called inactive have numbers as strong as hits
Ecoli rRNA inh OD600 – also measured in Ecoli rRNA inh; calls as there; OD600 change, %; measured here: OD600 growth;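 optical density of the mix in the first replicate; 0 = DMSO median and -100 = no signal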
Ecoli rRNA inh RFP – also measured in Ecoli rRNA inh; calls as there; RFP signal change, %; measured here: RFP humanized mutant strains;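 first replicate; 0 = DMSO median and -100 = no signal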
Active calls of the source: *; & = joins results of further samples.

1. N#CCCN(C(=O)Nc1ccccc1)C1CCCCC1
2. Cc1ccc(C)c(N2CCN(C(=O)CCc3nc(-c4cccc(Br)c4)no3)CC2)c1
3. Cc1occc1-c1nnc(SCC(=O)N2CCCCC2)n1C
4. COc1ccccc1CNC(=O)c1ccc(S(=O)(=O)N(C)c2ccccc2)cc1
5. Cc1[nH]n(-c2ccc(C(=O)O)cc2)c(=O)c1CCO
6. OCC[C@H]1NCc2cc(CO)cc(-c3ccccc3)c21
7. COc1ccc(CC(=O)OCC(=O)N2c3ccccc3CC2C)cc1OC (configuration not stated)
8. O=C(Nc1ccccc1Cl)c1cc(S(=O)(=O)N2CCC3(CC2)OCCO3)ccc1F
compound no.,1,2,3,4,5,6,7,8
AF4-AF9 inh,5.8,-1.5,-2.4,-1.1,-0.8,-2.8,-2.4,-5.7
Vif A3G,-8%,-4%,-3%,-3%,8%,-2%,-15%,-7%
Ecoli rRNA inh,5,3,0,-10,12,6,2,3
Ecoli rRNA inh OD600,4,-1,-15,-17,4,4,6,13
Ecoli rRNA inh RFP,-3.6,1.5,-1.5,-2.1,-2.2,19,3.0,3.1

9. COc1cccc(N2CCN(CC(=O)NC(=O)NC3CCCCC3)CC2)c1
10. O=C1C2C3C=CC(C3)C2S(=O)(=O)C2C3C=CC(C3)C12 (configuration not stated)
11. CCCC1NC(=O)c2cccnc2-n2c1nc1ccc(Br)cc1c2=O (configuration not stated)
12. Cn1nnc(NC(=S)NC(=O)c2ccc3ccccc3c2)n1
13. COc1cccc(CNC(=O)COC(=O)c2ccc(N3CCCC3=O)cc2)c1
14. CC(O)CNc1nc(N)[nH]c(=O)c1N=Nc1ccccc1 (configuration not stated)
15. CCC(Sc1nc2ccsc2c(=O)n1Cc1ccc(C(=O)O)cc1)C(=O)Nc1cccc(OC)c1 (configuration not stated)
16. C[C@@H]1CN([C@@H](C)CO)C(=O)CCCn2nncc2CO[C@@H]1CN(C)C(=O)Nc1ccccc1C(F)(F)F
compound no.,9,10,11,12,13,14,15,16
AF4-AF9 inh,1.2,0.6,0.0,-2.6,-1.6,6.1,0.9,0.1&0.6
Vif A3G,0%,3%,-9%,-1%,2%,-3%,-5%,-3%
Ecoli rRNA inh,-6,4,-1,1,10,19,8,11&1
Ecoli rRNA inh OD600,-20,7,-4,12,30,14,8,14&1
Ecoli rRNA inh RFP,1.4,0.5,-6.5,0.0,0.9,-1.0,5.9,-0.1&-0.9

17. CCN(CC(=O)Nc1ccccc1C(F)(F)F)C(=O)c1ccc2c(c1)NC(=O)CS2
18. COCCNC(=S)Nc1ccc(N2CCOCC2)c(S(=O)(=O)Nc2ccc(Cl)cc2)c1
19. O=S(=O)(NC1C2CC3CC(C2)CC1C3)c1ccc(F)cc1 (configuration not stated)
20. c1ccc(C2=NC(c3ccccc3)CC2)cc1 (configuration not stated)
21. CN(C)c1nc(NNC(=O)c2ccccc2)nc(N(C)C)n1
22. CCOC(=O)Nc1cc(NC(=O)OCC)ncn1
23. Cc1nnc(NC(=O)c2ccc(N3CCCC3=O)cc2)s1
24. Cc1nc(N)[nH]c(=O)c1CCCNc1ccc(CCC2(CCl)OCCO2)cc1
compound no.,17,18,19,20,21,22,23,24
AF4-AF9 inh,0.6,3.1,-1.6,0.9,-2.6,2.8,1.1,17
Vif A3G,0%,10%,4%,3%,-5%,-6%,2%,5%
Ecoli rRNA inh,9,7,3,3,3,2,11,-7
Ecoli rRNA inh OD600,19,3,-9,7,11,5,12,-13
Ecoli rRNA inh RFP,4.8,-2.1,1.3,2.3,-0.3,-2.8,1.8,4.7

25. O=C1[C@H](Oc2ccccc2)[C@@H](c2ccncc2)N1c1ccncc1
26. CC(=O)N1CCc2ccc(N)cc21
27. Cc1cscc(C)c1=S
28. CCC(C)(C)C1CCC2(CC1)NC(=O)N(CC(=O)NC(C)CCc1ccccc1)C2=O (configuration not stated)
29. O=C(Oc1ccc(-c2ccccc2)cc1)c1ccco1
30. CC(C)(C)c1csc(NC(=O)CCS(=O)(=O)c2ccc(F)cc2)n1
31. CCCCCCN1C[C@H](O)[C@@H](n2cc(COC(=O)c3ccccc3)nn2)C[C@@H]1c1ccc(C)cc1
32. CCOc1ccc(CN(C)C(=O)c2cccc(S(=O)(=O)Nc3ccccc3OC)c2)cc1OC
compound no.,25,26,27,28,29,30,31,32
AF4-AF9 inh,0.1,5.0,0.3,-1.5,2.5,-0.5,-1.8,2.0
Vif A3G,0%,-12%,-2%,-3%,-8%,1%,1%,-2%
Ecoli rRNA inh,20,8,8,-1,12,-4,0,-3
Ecoli rRNA inh OD600,21,16,22,-1,7,-24,-18,-1
Ecoli rRNA inh RFP,-2.7,4.7,0.5,3.6,-0.3,-2.3,6.5,0.3

33. CC(=NO)c1ccc2c(c1)Cc1cc([N+](=O)[O-])ccc1-2
34. CC(=O)N1CCN(S(=O)(=O)c2cccc(C(=O)N(C)Cc3ccc(C)o3)c2)CC1
35. O=C(NCc1cccnc1)c1cc(C(=O)NCc2cccnc2)cc([N+](=O)[O-])c1
36. O=C(C[C@H]1C[C@@H]2c3cc(NC(=O)c4ccc5c(c4)OCO5)ccc3O[C@@H]2[C@H](CO)O1)NCc1cc(F)ccc1F
37. O=C(O)C1CCN(c2ccc(S(=O)(=O)N3CCCCC3)cc2[N+](=O)[O-])CC1
38. Cc1nnc(NC(=O)c2ccc3nccnc3c2)s1
39. CCC1(CC)C(C#N)C(=O)NC(=O)C1C#N (configuration not stated)
40. O[C@H]1C[C@H](c2ccccc2)N(Cc2cccs2)C[C@@H]1n1cc(-c2ccc(F)cc2)nn1
compound no.,33,34,35,36,37,38,39,40
AF4-AF9 inh,5.2,-1.8,8.4,-0.6&-1.6,0.8,-8.1,-2.7,0.5
Vif A3G,3%,-7%,0%,3%,5%,5%,1%,-4%
Ecoli rRNA inh,-49,-2,-1,8&-3,-1,5,1,-4
Ecoli rRNA inh OD600,-73,3,4,-10&3,-3,10,-1,3
Ecoli rRNA inh RFP,-11,2.6,-3.0,0.4&3.2,-2.1,-3.5,-5.2,-0.6

41. CC12CCC(=O)N1C(C(=O)Nc1ccccc1N1CCCC1)CS2 (configuration not stated)
42. CN(C)C(=O)c1ccc(N=Nc2c(O)c3ccccc3[nH]c2=O)cc1
43. O=C(O)c1ccccc1C=NNc1ccccn1
44. Nc1ccc(Oc2ccc(N)c([N+](=O)[O-])c2)cc1[N+](=O)[O-]
45. CC(=O)Nc1ccc(S(=O)(=O)NN=c2sc3ccccc3n2C)cc1N
46. CC(CCN1CCC(CN2C(=O)C(=O)NC[C@@H]2Cc2ccccc2)CC1)c1ccccc1 (some centres not stated)
47. CC(C)(C)[C@H]1COC(=O)CCCC/C=C\C[C@H](CC(=O)N(CCO)Cc2ccccc2)C(=O)N1
48. O=S1(=O)CCN(CCCc2ccccc2)CC1
compound no.,41,42,43,44,45,46,47,48
AF4-AF9 inh,3.3,0.0,-3.0,18,-2.6,0.3,-6.0,-111
Vif A3G,1%,-2%,-1%,2%,0%,-2%,-1%,-1%
Ecoli rRNA inh,-2,-21*,9,-26,-9,9,0,11
Ecoli rRNA inh OD600,-1,4.1*,14,5,4,2,-7,8
Ecoli rRNA inh RFP,-2.0,0.6*,0.0,6.8,-0.6,1.1,0.5,-0.1

49. O=C(Sc1cccc2cccnc12)c1ccc(F)cc1
50. CCN(C[C@H]1N[C@@](CC)(C(=O)OC)[C@H]2C(=O)N(C)C(=O)[C@@H]12)C(=O)NC(C)C
51. O=C(CSc1nnc(CNC(=O)c2c(F)cccc2F)o1)c1ccc(Cl)cc1
52. CSCCC(NC(=O)c1ccccc1Cl)C(=O)NCC1COc2ccccc2O1 (configuration not stated)
53. CC(=O)OC1C=CCC2C(=O)c3cccc(O)c3C(O)C12 (configuration not stated)
54. O=C(COc1ccc(Cl)cc1Br)NC(=O)NC1CCCC1
55. O=C1c2ccccc2C(O)(c2ccccc2)N1c1ccc([N+](=O)[O-])cc1Cl (configuration not stated)
56. CN(C)C(=O)CCc1ccc2c3c([nH]c2c1)[C@]1(C)[C@@H](C(=O)N2CCOCC2)C[C@H](CC(=O)NCc2ccco2)C(=O)N1CC3
compound no.,49,50,51,52,53,54,55,56
AF4-AF9 inh,19,-0.6,0.7,1.9,3.3,-17,9.4,0.3
Vif A3G,-10%,3%,-5%,-4%,4%,0%,1%,5%
Ecoli rRNA inh,18,5,-1,0,-9,1,-16,6
Ecoli rRNA inh OD600,10,9,-26,-7,-16,4,-6,7
Ecoli rRNA inh RFP,7.4,-4.2,-2.2,1.8,6.5,-0.5,-5.6,1.3

57. CCN(CC)CCC(O)(c1ccc2c(c1)OCO2)c1cc(OC)c(OC)c(OC)c1 (configuration not stated)
58. Cc1cccc(NC(=O)CSCC(=O)Nc2ccc(S(=O)(=O)N3CCCCC3)cc2)c1
59. CC(=O)Nc1cccc(OCCOc2cccc([N+](=O)[O-])c2)c1
60. CCN1C(=O)[C@H]2[C@@H](c3ccc(OC)cc3)N[C@]3(CCCN(Cc4ccc(OC)cc4)C3=O)[C@H]2C1=O
61. Cc1ccc(C(=Cc2ccc([N+](=O)[O-])cc2)C(=O)O)cc1
62. Cc1ccc(Nc2c(O)nc[nH]c2=O)cc1
63. CCCC(=O)Nc1ccc(C(=O)COC(=O)c2c(C)noc2C)cc1
64. C=CCN(Cc1ccc(Br)s1)C(=O)c1ccc(OCc2c(C)noc2C)cc1
compound no.,57,58,59,60,61,62,63,64
AF4-AF9 inh,-2.1,-6.9,4.3,-0.8,2.2,-2.8,-0.9,-0.7
Vif A3G,-1%,-1%,-4%,-4%,-5%,0%,0%,-1%
Ecoli rRNA inh,9,-11,-17,1,-8,1,-1,-6
Ecoli rRNA inh OD600,9,-18,0,-3,-3,15,-1,-34
Ecoli rRNA inh RFP,-0.3,3.1,6.1,-5.6,-4.8,-2.5,2.7,-3.0

Results in sequence from above:
Ecoli rRNA inh OD600, nos. 17 to 22 → 19, 3, -9, 7, 11, 5
Ecoli rRNA inh, nos. 17 to 22 → 9, 7, 3, 3, 3, 2
AF4-AF9 inh, nos. 17 to 22 → 0.6, 3.1, -1.6, 0.9, -2.6, 2.8

The main list resumes; the 4 compounds before the break are reprinted first.
61. Cc1ccc(C(=Cc2ccc([N+](=O)[O-])cc2)C(=O)O)cc1
62. Cc1ccc(Nc2c(O)nc[nH]c2=O)cc1
63. CCCC(=O)Nc1ccc(C(=O)COC(=O)c2c(C)noc2C)cc1
64. C=CCN(Cc1ccc(Br)s1)C(=O)c1ccc(OCc2c(C)noc2C)cc1
65. O=C(COc1ccccc1)N[C@@H]1c2ccccc2CC[C@@H]1OCc1ccccc1
66. O=C(COC(=O)/C=C/c1cccc(C(F)(F)F)c1)NC1CCS(=O)(=O)C1 (configuration not stated)
67. CCOC(=O)c1c(C)[nH]c(C(=O)CN2C(=O)NC(C)(C)C2=O)c1C
68. O=C(c1cccc(Cl)c1)N1CCC2CC1c1cc(-c3ccc(F)cc3)ccc12 (configuration not stated)
69. CC(C)(C)N1CCC1CN (configuration not stated)
70. COC(=O)/C(=C/c1cn(C(C)=O)c2ccccc12)[N+](=O)[O-]
71. CC(C)(C)c1ccc2oc(=O)cc(-c3cccc(-c4ccc(C(F)(F)F)cc4)c3)c2c1
compound no.,61,62,63,64,65,66,67,68,69,70,71
AF4-AF9 inh,2.2,-2.8,-0.9,-0.7,-3.9,1.1,-0.7,2.0,-2.0,1.5,-1.7
Vif A3G,-5%,0%,0%,-1%,3%,-7%,-11%,-1%,-7%,-11%,4%
Ecoli rRNA inh,-8,1,-1,-6,8,1,7,2,8,6,13
Ecoli rRNA inh OD600,-3,15,-1,-34,6,-3,3,6,12,-3,-1
Ecoli rRNA inh RFP,-4.8,-2.5,2.7,-3.0,1.4,-2.0,1.4,-1.5,-0.7,2.3,-1.2

This is a subset, so the mix of outcomes need not match the whole.
